High-throughput results (PubChem)
HIV Env fusion = HIV envelope-mediated fusion inhibition. inhibition, % at 12.3 µM. HeLa-JRFL Env/CEM21 cell fusion, luciferase. 1.1% of 360,000 active;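 active = mean replicate inhibition score of at least 50 and every replicate individually at or above 50; inconclusive = only one of the two criteria met; inactive = mean below 50 and not all replicates reaching 50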;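 also: 0% = plate neutral controls and 100% = maraviroc near 300 nM; one replicate is shown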
An asterisk follows results filed as active; ? = inconclusive; & = joins results of further samples; [ ] = remark or other dose. A portion of the library. The share of hits here may be higher or lower than overall.

HIV Env fusion	canonical_smiles
?	COC(=O)C1=C(C)N(Cc2ccc(C(F)(F)F)cc2)C(=NCc2ccccc2)NC1c1cccc(F)c1 (configuration not stated)
5[16.7 µM]	C[C@H](CO)N1C[C@H](C)[C@H](CN(C)Cc2ccc(C(=O)O)cc2)Oc2ccc(N(C)C)cc2C1=O
2[16.7 µM]	CNC[C@H]1Oc2c(N)cccc2C(=O)N([C@@H](C)CO)C[C@H]1C
?	CN(C(=O)c1cn(C)c2ccccc12)c1ccc(Oc2cccnc2)cc1
3[16.7 µM]	COc1ccc(CN(C)C[C@H]2Oc3c(NS(C)(=O)=O)cccc3C(=O)N([C@H](C)CO)C[C@H]2C)cc1
1[16.7 µM]	Cc1ccc(CN(C)C[C@@H]2OCc3cnnn3CCCC(=O)N([C@@H](C)CO)C[C@@H]2C)cc1
-13[16.7 µM]	CCC(=O)Nc1ccc2c(c1)OC[C@@H](C)N(Cc1nccs1)C[C@@H](C)[C@@H](OC)CN(C)C2=O
6[16.7 µM]	CO[C@@H]1CN(C)C(=O)c2ccc(NS(=O)(=O)c3ccc(F)cc3)cc2OC[C@H](C)NC[C@H]1C
12[16.7 µM]	O=C(C[C@@H]1C[C@@H]2c3cc(NC(=O)CC4CC4)ccc3O[C@@H]2[C@@H](CO)O1)NCc1ccc(Cl)cc1
60*	C=CCN=C1NC(c2ccc(Cl)cc2)C(C(=O)OC)=C(C)N1Cc1cccc(C(F)(F)F)c1 (configuration not stated)

Remaining list, next part:
HIV Env fusion	canonical_smiles
-4[16.7 µM]	CC(C)CC#Cc1cnc2c(c1)C(=O)N([C@H](C)CO)C[C@@H](C)[C@H](CN(C)C(=O)c1cccc(F)c1)O2
0[16.7 µM]	C[C@H]1CN([C@@H](C)CO)C(=O)Cc2cc(NS(=O)(=O)c3ccccc3)ccc2O[C@H]1CN(C)C(=O)Nc1ccc(C(F)(F)F)cc1
12[16.7 µM]	CC(C)NC(=O)Nc1ccc2c(c1)C(=O)N([C@H](C)CO)C[C@H](C)[C@H](CN(C)Cc1ccc(-c3ccccc3)cc1)O2
70*	CC(=O)C1=C(C)N(Cc2ccc(Cl)cc2)C(=S)NC1c1cccc(Br)c1 (configuration not stated)
5[16.7 µM]	CN1CCN(C(=O)C[C@@H]2CC[C@H]3[C@@H](COC[C@H](O)CN3C(=O)Cc3ccccc3)O2)CC1
-2	COC(=O)C1=C(C)N(C)C(=NCc2ccccc2C(F)(F)F)NC1CCc1ccccc1 (configuration not stated)
12[16.7 µM]	CCCNC(=O)c1cc2c(c(-c3cccc(-c4cccc(OC)c4)c3)n1)[C@@H](CCO)N([S@](=O)C(C)(C)C)C2
1[16.7 µM]	C[C@@H]1CN([C@@H](C)CO)C(=O)c2c(c3ccccc3n2C)-c2ccccc2CO[C@H]1CN(C)C(=O)c1ccncc1
1[16.7 µM]	O=C(C[C@@H]1CC[C@H]2NC[C@@H](O)COC[C@@H]2O1)N1CCc2ccccc2C1
-4[16.7 µM]	Cc1cccc(S(=O)(=O)N2[C@@H]3Cn4c(cccc4=O)[C@H]2[C@@H](C(=O)N(C)C)[C@@H]3CO)c1

Additional compounds follow:
HIV Env fusion	canonical_smiles
-5[16.7 µM]	C[C@@H]1CN([C@@H](C)CO)C(=O)CCCn2cc(nn2)CO[C@@H]1CN(C)Cc1cccnc1
10	CCOC(=O)C1=CCC(c2ccccc2)N(S(C)(=O)=O)C1 (configuration not stated)
5[16.7 µM]	CC(=O)N1[C@H](C(=O)NCCCN(C)C)[C@@H](CO)[C@@H]2Cn3c(ccc(-c4cccc(F)c4)c3=O)[C@@H]21
9&11[16.7 µM]	CO[C@H]1CN(C)C(=O)c2cc(C#N)ccc2OCC[C@@H]2CC[C@@H](OC)[C@@H](CN(C)C(=O)[C@@H]1C)O2
-5[16.7 µM]	C[C@H](NC(=O)C[C@H]1CC[C@@H](NC(=O)c2cccnc2)[C@H](CO)O1)c1ccccc1
-1	CC12CCC3c4ccc(OCCCO)c([N+](=O)[O-])c4CCC3C1CCC2=O (configuration not stated)
-29	COc1ccc(CN2C[C@@]3(O)CC[C@@H](O)[C@@H](OC)[C@@H]3[C@@]2(C)[C@H](O)CC=C(C)C)cc1
4[16.7 µM]	COc1ccc2c3c(n(C)c2c1)[C@@H](CO)N(C(=O)CC1CC1)CC31CN(C(=O)CC2CC2)C1
-8[16.7 µM]	CCO[C@H]1OC(C(=O)NCc2ccccc2)=C[C@@H](c2csc3ccccc23)[C@@H]1CCCO
-17[16.7 µM]	CCCNC(=O)N1C[C@@H](O)COC[C@@H]2O[C@H](CC(=O)NCc3ccncn3)CC[C@H]21

Remaining list, next part.
HIV Env fusion	canonical_smiles
-9[16.7 µM]	CO[C@@H]1CN(C)C(=O)c2ccc(NC(=O)c3ccc(F)cc3)cc2OC[C@H](C)N(C(=O)CN(C)C)C[C@H]1C
-13[16.7 µM]	CS(=O)(=O)N1[C@@H]2c3ccc(C4=CCCC4)c(=O)n3C[C@@H]2[C@@H](CO)[C@@H]1C(=O)NCCc1ccncc1
-10[16.7 µM]	NC(=O)[C@H]1[C@@H]2C(=O)O[C@@H](c3ccccc3)[C@@H](c3ccccc3)N2[C@@H](c2ccc(O)cc2)[C@]12C(=O)Nc1ccc(C#CC3(O)CCCCCC3)cc12
29[16.7 µM]	CN1c2ccc(C3=CCCCC3)cc2[C@@H]2[C@@H](CCN2C(=O)C2CCCCC2)[C@@H]1CO
-25[16.7 µM]	C[C@H]1CN([C@@H](C)CO)C(=O)c2ccccc2-c2ccccc2CO[C@H]1CN(C)C(=O)[C@H]1CCCN1C
-46[16.7 µM]	O=C(C[C@H]1C[C@@H]2c3cc(NS(=O)(=O)c4ccc(F)cc4)ccc3O[C@@H]2[C@H](CO)O1)NCCN1CCCCC1
1	O=C(NCc1ccccc1)[C@H]1CCCN1C(=O)[C@H]1CCCN1C(=O)c1cc(F)cc(F)c1
-9[16.7 µM]	O=C(C[C@H]1C[C@@H]2c3cc(NC(=O)C4CCOCC4)ccc3O[C@@H]2[C@H](CO)O1)NCCN1CCCCC1
-4	COc1cccc(CC(=O)N2CCN(C(=O)C(=O)c3ccc(OC)c(OC)c3)CC2)c1
16[16.7 µM]	C[C@H](CO)N1C[C@H](C)[C@H](CN(C)C(=O)Nc2ccc3c(c2)OCCO3)OCc2cn(nn2)CCCC1=O

Single entries from the list.
In HIV Env fusion, CC(C)CC#Cc1cnc2c(c1)C(=O)N([C@H](C)CO)C[C@@H](C)[C@H](CN(C)C(=O)c1cccc(F)c1)O2 is entered as -4[16.7 µM]
In HIV Env fusion, CS(=O)(=O)N1[C@@H]2c3ccc(C4=CCCC4)c(=O)n3C[C@@H]2[C@@H](CO)[C@@H]1C(=O)NCCc1ccncc1 is entered as -13[16.7 µM]

Other entries.
HIV Env fusion	canonical_smiles
-2[16.7 µM]	C[C@@H]1CN([C@H](C)CO)C(=O)CCCn2cc(nn2)CO[C@H]1CN(C)Cc1ccc(Cl)c(Cl)c1
4[16.7 µM]	Cc1noc(C)c1NC(=O)Nc1ccc2c(c1)C(=O)N([C@H](C)CO)C[C@@H](C)[C@@H](CN(C)S(=O)(=O)c1ccc(Cl)cc1)OCCCC[C@H](C)O2
11[16.7 µM]	O=C(C[C@H]1CC[C@H]2[C@@H](COC[C@H](O)CN2Cc2cc(F)ccc2F)O1)N[C@H]1CCN(Cc2ccccc2)C1
-10[16.7 µM]	CO[C@@H](C(=O)N(C)C[C@H]1OCc2ccccc2-c2ccccc2C(=O)N([C@H](C)CO)C[C@@H]1C)c1ccccc1
25[16.7 µM]	O=C(C[C@H]1C[C@@H]2c3cc(NC(=O)C4CCC4)ccc3O[C@@H]2[C@@H](CO)O1)NCCc1ccccc1
-18[16.7 µM]	CCCC(=O)Nc1ccc2c(c1)C(=O)N(C)C[C@H](OC)[C@H](C)CN(C(=O)c1ccccn1)[C@H](C)CO2
8	CCCCC#Cc1ccccc1COC[B-](F)(F)F
7[16.7 µM]	CN(C)CC#Cc1cccc(-c2nc(C(=O)O)cc3c2[C@H](CCO)N(S(=O)C(C)(C)C)C3)c1 (some centres not stated)
4[16.7 µM]	COC(=O)C[C@H]1CC[C@H]2[C@@H](COC[C@H](O)CN2S(=O)(=O)c2cn(C)cn2)O1
-8[16.7 µM]	C[C@@H](NC(=O)C[C@H]1C[C@@H]2c3cc(NC(=O)C4CCOCC4)ccc3O[C@@H]2[C@@H](CO)O1)c1ccccc1

Of the compounds above, five have an aryl methoxy group:
HIV Env fusion	canonical_smiles
3[16.7 µM]	COc1ccc(CN(C)C[C@H]2Oc3c(NS(C)(=O)=O)cccc3C(=O)N([C@H](C)CO)C[C@H]2C)cc1
12[16.7 µM]	CCCNC(=O)c1cc2c(c(-c3cccc(-c4cccc(OC)c4)c3)n1)[C@@H](CCO)N([S@](=O)C(C)(C)C)C2
-29	COc1ccc(CN2C[C@@]3(O)CC[C@@H](O)[C@@H](OC)[C@@H]3[C@@]2(C)[C@H](O)CC=C(C)C)cc1
4[16.7 µM]	COc1ccc2c3c(n(C)c2c1)[C@@H](CO)N(C(=O)CC1CC1)CC31CN(C(=O)CC2CC2)C1
-4	COc1cccc(CC(=O)N2CCN(C(=O)C(=O)c3ccc(OC)c(OC)c3)CC2)c1

More entries:
HIV Env fusion	canonical_smiles
16[16.7 µM]	CCc1nc(N2[C@@H](C#N)[C@H](c3ccccc3-c3ccccc3C)[C@@H]2CO)sc1C
11[16.7 µM]	C[C@@H]1CN([C@@H](C)CO)C(=O)Cc2cc(NC(=O)CCCN(C)C)ccc2O[C@H]1CN(C)Cc1ccc(C(F)(F)F)cc1
11[16.7 µM]	CC(C)C#Cc1ccc2c(c1)O[C@H](CN(C)C(=O)C1CCC1)[C@H](C)CN([C@@H](C)CO)S2(=O)=O
2[16.7 µM]	O=C(C[C@@H]1CC[C@H]2[C@@H](COC[C@@H](O)CN2C(=O)c2ccccc2)O1)NCCCN1CCOCC1
19[16.7 µM]	CN1C(=O)c2cc(NC(=O)Nc3ccccc3F)ccc2OC[C@H]2O[C@H](CC(=O)NCCc3ccncc3)CC[C@@H]21
?	N#Cc1ccc(S(=O)(=O)N2CCCc3nc(-c4ccc(Br)cc4)ccc32)cc1
40[16.7 µM]	C[C@H]1CN([C@@H](C)CO)C(=O)c2cc(N(C)C)ccc2O[C@@H]1CN(C)C(=O)NC1CCCCC1
-9	COC(=O)Cc1nnn2c1[C@H](C)[C@H](c1ccccc1Br)OC[C@H](C)C2
27[16.7 µM]	COc1ccc(NC(=O)Nc2ccc3c(c2)CC(=O)N([C@@H](C)CO)C[C@@H](C)[C@H](CN(C)S(=O)(=O)c2ccc(Cl)cc2)O3)cc1
3[16.7 µM]	COc1cccc(-c2ccc([C@H]3[C@H](CO)N4C(=O)CN(C(=O)C5CCCC5)C[C@@H]34)cc2)c1

An excerpt of these results, with each value named.
C[C@@H]1CN([C@H](C)CO)C(=O)CCCn2cc(nn2)CO[C@H]1CN(C)Cc1ccc(Cl)c(Cl)c1
  HIV Env fusion: -2[16.7 µM]

Cc1noc(C)c1NC(=O)Nc1ccc2c(c1)C(=O)N([C@H](C)CO)C[C@@H](C)[C@@H](CN(C)S(=O)(=O)c1ccc(Cl)cc1)OCCCC[C@H](C)O2
  HIV Env fusion: 4[16.7 µM]

Remaining list, next part:
HIV Env fusion	canonical_smiles
17	CC(C)[C@H](N)C(=O)N[C@H](C(=O)N1CCC2CCN(Cc3ccccc3)CC21)C(C)C (some centres not stated)
-18	CCN=C1NC(c2ccc(C(F)(F)F)cc2)C(C(=O)OC)=C(C)N1Cc1ccccc1C(F)(F)F (configuration not stated)
2[16.7 µM]	COC(=O)C[C@@H]1C[C@@H]2c3cc(NC(=O)CN(C)C)ccc3O[C@@H]2[C@H](CO)O1
-54[16.7 µM]	CO[C@@H]1CN(C)C(=O)c2cc(NC(C)=O)ccc2OC[C@H](C)N(S(C)(=O)=O)C[C@H]1C
10[16.7 µM]	CC(C)NC(=O)Nc1ccc2c(c1)C(=O)N([C@H](C)CO)C[C@@H](C)[C@@H](CN(C)C(=O)Cc1ccccc1)OCCCC[C@H](C)O2
-41	O=C(C(=O)N1CCN(C(=O)C2CCC2)CC1)c1cccc(C(F)(F)F)c1
12	COC(=O)[C@]12C[C@H](CC(=O)NCC34CC5CC(CC(C5)C3)C4)C(=O)N(CCC3=CCCCC3)C1=C[C@H](COCc1ccccc1)O[C@@H]2C
-9	O=Nc1ccccn1
14	COCc1cc(N2CCN(C(=O)OC(C)(C)C)C[C@H]2C)ccc1N1C[C@@H](C)O[C@@H](C)C1
71*	COC(=O)[C@]12C[C@H](CC(=O)NCC3CCCCC3)C(=O)N(CCC3=CCCCC3)C1=C[C@H](C(C)(C)C)O[C@@H]2C

Additional records:
HIV Env fusion	canonical_smiles
-11[16.7 µM]	CO[C@H]1CN(C)C(=O)c2ccc(NC(=O)CC(F)(F)F)cc2OC[C@H](C)N(S(=O)(=O)c2cn(C)cn2)C[C@H]1C
-4[16.7 µM]	C[C@@H]1CN([C@@H](C)CO)C(=O)c2cc(C#CC3(O)CCCC3)cnc2O[C@@H]1CN(C)C(=O)C1CC1
14	NC(=O)c1c(N)[nH]c(C(=O)c2ccccc2)c1-c1ccccc1Cl
47[16.7 µM]	COc1ccc2c3c(n(C)c2c1)[C@H](CO)N(C(=O)Nc1ccc(F)cc1)CC31CCN(Cc2cccc(F)c2)CC1
-4[16.7 µM]	O=C(CN1CCOCC1)N[C@H]1CC[C@@H](CCNC(=O)C2CCC2)O[C@H]1CO
12	CC(C)C[C@H]1COc2cccc(N3CCOCC3)c2S(=O)(=O)N1
56*	Cc1ccccc1C(=O)N[C@H](C(=O)N1CCC[C@H]1C(=O)NCc1ccccc1)c1ccccc1
-3	COc1ccccc1CN1Cc2ccccc2Oc2ccccc2S1(=O)=O
6[16.7 µM]	C[C@@H]1CCCCO[C@@H](CN(C)C(=O)Nc2ccc(F)cc2)[C@@H](C)CN([C@@H](C)CO)C(=O)c2cc(NC(=O)Nc3ccc(C(F)(F)F)cc3)ccc2O1
?	Nc1[nH]c(C(=O)c2ccc(Br)cc2)c(-c2ccc3c(c2)OCO3)c1C(=O)NCCc1c[nH]c2ccccc12
31	COC(=O)C1=C(C)N(Cc2cccc(C(F)(F)F)c2)C(=NCc2ccc3c(c2)OCO3)NC1c1cccc(F)c1 (configuration not stated)
10[16.7 µM]	COc1cccc(-c2ccc3n(c2=O)C[C@@H]2[C@@H](CO)[C@H](C(=O)NC4Cc5ccccc5C4)N[C@H]32)c1
